# miR-21 reporter: miR-21 reporter, rising signal; HeLa miR-21 FLuc reporter, luciferase, 48 h; Potency, µM (highest dose often 38.3 µM), for the others: at the highest dose reporter change, positive = more light; 340,000 tested, under 10 active; active = well fitted rising curve with a large enough effect; inconclusive = small, poorly fitted or top-dose-only effect; inactive = no such curve, though single readings can be large or run the other way;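 also: % of control where 0% means no effect; miR-21 action dims this reporter so a rising signal means less miR-21 action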
#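 HeLa cells endogenously expressing miR-21, stably carrying CMV-driven firefly luciferase with a downstream miR-21 binding site, 2000 cells/well. Titrations up to approximately 40 uM, 48 hours; luciferase luminescence read.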
# GLA inh pH 4.5: alpha-galactosidase A (human) inhibition, pH 4.5 | P06280 | purified enzyme, 4-MU-alpha-Gal fluorescence, pH 4.5 | activity change, negative = inhibition, % at 105 µM | 230,000 tested, under 10 active | AID 1467; inconclusive = small, poorly fitted or top-dose-only inhibition, or a rising curve; inactive = flat fitted curve, though single readings scatter; no compound was filed as active;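 also: 0% = full activity with enzyme and -100% = basal without enzyme; dose as in the result columns while the protocol names 77 µM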
# Target sequence (P06280 whole entry, looked up): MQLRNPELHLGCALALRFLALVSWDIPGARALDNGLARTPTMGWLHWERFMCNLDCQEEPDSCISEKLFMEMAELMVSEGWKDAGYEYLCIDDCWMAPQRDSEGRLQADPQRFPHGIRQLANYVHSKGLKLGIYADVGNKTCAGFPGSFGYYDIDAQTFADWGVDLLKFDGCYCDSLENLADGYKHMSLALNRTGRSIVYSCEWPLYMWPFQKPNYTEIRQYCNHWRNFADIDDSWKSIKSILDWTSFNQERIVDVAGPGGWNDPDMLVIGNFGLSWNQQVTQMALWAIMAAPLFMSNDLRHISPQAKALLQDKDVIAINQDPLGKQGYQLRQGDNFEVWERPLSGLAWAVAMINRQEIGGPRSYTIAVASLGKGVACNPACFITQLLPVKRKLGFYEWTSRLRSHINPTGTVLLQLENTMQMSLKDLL
# Rango dissoc inh: inhibition of RanGTP-driven Rango-importin beta dissociation; O95149+P62826; Biochemical FRET Rango-importin beta, RanGTP-induced dissociation; Potency, µM (top dose mostly 46.1 µM), for inactives: at the highest dose activity change, negative = inhibition; actives 0.071% (n = 340,000); AID 540253; active means falling FRET ratio curve, often poorly fitted, with flat reads before Ran was added; inconclusive means other falling curves, or compound fluorescence or quenching; inactive means flat or rising ratio curve;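 also: potency is read from the fitted curve at half-maximal effect; % of control where 0% means no effect; nearly all actives have a fitted effect of over 45% in size; -100% = wells without RanGTP and RCC1; the record marks most hits as doubtful in a second field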
#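 Compounds sat 5 min at room temperature with 0.1 uM Rango biosensor plus 0.25 uM importin beta, then FRET pre-read. RanGTP-RCC1 (0.6 uM Ran, 2mM GTP, 0.2 uM RCC1) added for 45 min, and the CFP/YFP post-read measured blocked complex dissociation.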
# Rango complex inh: Rango-importin beta binding inhibition. Q14974. Potency, µM (highest dose often 92.2 µM), without a hit: top-dose inhibition of complex formation. actives 0.031% (n = 340,000). Rango CFP/YFP FRET sensor + importin beta, 45 min. AID 540263; active = rising FRET ratio curve, often small or poorly fitted; inconclusive = mostly compound fluorescence or quenching in the first reads; inactive = flat curves in all reads;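 also: potency is read from the fitted curve at half-maximal effect; 0% = DMSO wells and 100% = buffer wells lacking importin beta; nearly all actives have a fitted effect of over 15% in size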
#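 Inhibition scored from the CFP 486 nm/YFP 530 nm FRET ratio 45 min after adding 0.125 microM importin beta to 50 nM Rango biosensor preincubated 5 min with compound (room temperature, PBS with DTT, Tween-20, BSA). No-importin wells as positive control.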
# Numbers without * were called inactive; ? = inconclusive; / = no result given; & = joins results of further samples.
# The first twelve records (preview)
Rango complex inh	Rango dissoc inh	GLA inh pH 4.5	miR-21 reporter	Molecule
4.2%	-6%	5	-41%	Cc1ccc(OCc2nc(-c3ccccn3)no2)cc1
-0.4%	0%	-10	-6%	Cn1c(SCC(=O)Nc2cccc(F)c2)nnc1-c1cc2ccccc2o1
-1.0%	25%	/	/	C=CCC[C@H](Cc1ccc(F)cc1)C(=O)OC[C@H](C)NC(=O)[C@H](CC=C)CC(=O)N(CCO)Cc1ccccc1
0.5%	2%	/	0%	COc1ccc(S(=O)(=O)NCc2cccnc2)cc1
0.7%	4%	7	-1%	CSc1ccc(NC(=O)NCCCN2CCN(c3ccccc3F)CC2)cc1
-0.5%	-3%	9	-2%	CC(=O)c1c(NC(=O)C(C)C)nc(C)nc1-c1ccccc1
-3.9%	-17%	-10	-7%	C#CCOC(=O)C(NC(=O)c1ccccc1)=C1CCCCC1
-0.8%	12%	-3	-3%	COc1ccc(CCNC(=O)Cn2nnc(-c3ccccc3F)n2)cc1OC
-3.5%	-6%	4	-3%	O=C1C(NS(=O)(=O)c2ccc(Cl)cc2)=C(N2CCCCC2)C(=O)c2ccccc21
1.1%	-10%	-7	17%	C(=C\c1ccccc1)/CSc1nnc(-c2ccccn2)n1Cc1ccco1
0.5%	0%	/	-14%	O=C(Nc1cccc(-c2cccc(F)c2)c1)C1CCN(CC2CCOC2)CC1 (stereo not drawn)
-1.6%	-7%	6	0%	O=C(O)c1ccc(-c2ccccc2)[nH]1

# The whole of this part, from the start:
Rango complex inh	Rango dissoc inh	GLA inh pH 4.5	miR-21 reporter	Molecule
4.2%	-6%	5	-41%	Cc1ccc(OCc2nc(-c3ccccn3)no2)cc1
-0.4%	0%	-10	-6%	Cn1c(SCC(=O)Nc2cccc(F)c2)nnc1-c1cc2ccccc2o1
-1.0%	25%	/	/	C=CCC[C@H](Cc1ccc(F)cc1)C(=O)OC[C@H](C)NC(=O)[C@H](CC=C)CC(=O)N(CCO)Cc1ccccc1
0.5%	2%	/	0%	COc1ccc(S(=O)(=O)NCc2cccnc2)cc1
0.7%	4%	7	-1%	CSc1ccc(NC(=O)NCCCN2CCN(c3ccccc3F)CC2)cc1
-0.5%	-3%	9	-2%	CC(=O)c1c(NC(=O)C(C)C)nc(C)nc1-c1ccccc1
-3.9%	-17%	-10	-7%	C#CCOC(=O)C(NC(=O)c1ccccc1)=C1CCCCC1
-0.8%	12%	-3	-3%	COc1ccc(CCNC(=O)Cn2nnc(-c3ccccc3F)n2)cc1OC
-3.5%	-6%	4	-3%	O=C1C(NS(=O)(=O)c2ccc(Cl)cc2)=C(N2CCCCC2)C(=O)c2ccccc21
1.1%	-10%	-7	17%	C(=C\c1ccccc1)/CSc1nnc(-c2ccccn2)n1Cc1ccco1
0.5%	0%	/	-14%	O=C(Nc1cccc(-c2cccc(F)c2)c1)C1CCN(CC2CCOC2)CC1 (stereo not drawn)
-1.6%	-7%	6	0%	O=C(O)c1ccc(-c2ccccc2)[nH]1
-0.9%	0%	/	0%	O=C(CSc1ccc([N+](=O)[O-])cc1)NNC(=O)c1ccccc1F
-1.6%	4%	3	-1%	Cc1nc2ccccc2c(=O)n1/N=C/c1ccc(O)cc1
-1.1%	6%	/	-1%	COC(=O)c1c(C(=O)OC)c(-c2ccc(OC)cc2)n2c1CS(=O)C2 (stereo not drawn)
-3.0%	3%	/	/	O=P(Cc1ccccc1)(Cc1ccccc1)c1ccccc1
1.9%	0%	-1	1%	CC(=O)c1c(-c2ccc(Cl)cc2)c2ccccc2[nH]c1=O
?	-25%	-29	-2%	CC(=O)Oc1ccc2c(=O)c(/C=N/c3cc(=O)[nH]c(=S)[nH]3)coc2c1
7.0%	18%	-22	10%	Clc1ncnc2scc(-c3ccc(Br)cc3)c12
3.7%	-9%	-12	2%	COc1ccc(CNC(=O)c2cc(COc3c(F)cccc3F)on2)cc1OC
2.6%	-6%	-7	-5%	CCOC(=O)c1c(NC(=O)C(C)S(=O)(=O)c2cn(CC)c3ccccc23)sc2c1CCCC2 (stereo not drawn)
-1.4%	-3%	-1	-6%	NC(=O)C1CCN(c2ccc(C(F)(F)F)cc2[N+](=O)[O-])CC1
0.2%	6%	/	10%	CC(=O)Nc1ccc(N=c2cc([N+](=O)[O-])cc(Cl)n2O)cc1
3.2%	-3%	/	9%	Cc1cc(NC(=O)COC(=O)C2CC(=O)N(c3ccccc3)C2)no1 (stereo not drawn)
-1.2%	-20%	/	/	Cc1ccc(Cl)cc1NC(=O)COC(=O)CN1C(=O)C2CCCCC2C1=O (stereo not drawn)
1.9%	-3%	4	-22%	CCOC(=O)CSC(=S)NC(=O)c1ccc(OC)cc1
-1.2%	10%	3	0%	Cc1ccc(CNC(=O)CN(CCc2ccccc2)S(C)(=O)=O)cc1
?	13%	/	/	Cn1c(N)c(C(=O)COC(=O)/C=C/c2ccccc2F)c(=O)n(C)c1=O
1.0%	-19%	-2	-17%	COc1ccccc1OCc1ccc(C(=O)OCC2CCCO2)o1 (stereo not drawn)
-0.2%	0%	5	-3%	COC(=O)Cc1ccc(N(Cc2ccccc2F)S(=O)(=O)c2ccc(C)cc2)cc1
-2.5%	6%	-1	-12%	C/C(=N/OCC(=O)Nc1ccc(C)cc1C)c1cccs1
2.3%	0%	/	-1%	Cc1cccc(NC(=O)c2cc[n+]([O-])cc2)c1C
1.6%	8%	6	-4%	CC(C)(C)NC(=O)C(c1ccc(OCC(N)=O)cc1)N(C(=O)c1cccnc1)C1CC1 (stereo not drawn)
?	-7%	-11	0%	CC1CCC/C(=C\Nc2ccccc2C(=O)O)C1=O (stereo not drawn)
5.7%	-7%	-15	0%	CSc1snnc1-c1ccccc1
4.2%	3%	/	/	CN1CC[C@@]2([C@@]34CCN(C)C3Nc3ccccc34)c3ccccc3NC12 (stereo partly drawn)
0.0%	0%	-26	0%	COc1ccc(C(CC(=O)Nc2cc([N+](=O)[O-])ccc2OC)c2ccccc2)cc1 (stereo not drawn)
0.9%	25%	2	-2%	CCOC(=O)c1ccc2nc(C(F)(F)F)[nH]c(=O)c2c1
-2.9%	-4%	/	/	COC(=O)[C@]1(C)CCC[C@@]2(C)C3CC[C@]4(OC(C)=O)C[C@@]3(CCC21)CC4=NO (stereo partly drawn)
?	?	-8	-8%	CN=Cc1sc2ccccc2c1O
2.3%	-9%	/	0%	Cc1cccc(NC(=O)C(CCC(N)=O)NC(=O)OCc2ccccc2)c1 (stereo not drawn)
?	-25%	5	1%	CC(=O)C1C(=O)C=C(c2cccs2)CC1c1ccccc1 (stereo not drawn)
3.4%	-11%	/	-3%	C/C(=N/NS(=O)(=O)c1cccc([N+](=O)[O-])c1)c1ccc2c(c1)OCO2
-0.7%	2%	/	1%	CC(C)(C)NC(=O)C(c1ccncc1)N(C(=O)CNC(=O)c1ccco1)c1ccc(F)cc1 (stereo not drawn)
-1.0%	-4%	4	1%	CCC(=O)Nc1ccc(C(=O)NNC(=O)COc2cc(C)ccc2C)cc1
-0.1%	6%	-5	-4%	Cc1cc(Br)ccc1SCC(=O)OCC(=O)NC(C)c1ccccc1 (stereo not drawn)
-2.2%	-14%	-4	-6%	Cc1ccc(NC(=O)[C@@H]2CCCN2S(=O)(=O)c2ccccc2F)cc1S(=O)(=O)N1CCOCC1
-0.8%	-16%	-1	0%	COC(=O)C(C)NC(=S)N1CCN(c2c(F)cc3c(=O)c(C(=O)O)cn(C4CC4)c3c2OC)CC1C (stereo not drawn)
0.1%	-3%	0	-6%	CN1CCN(CC(=O)Nc2nc3c(s2)CCCC3)CC1
3.0%	23%	-2	-25%	COc1ccc(-c2nnc3sc(COc4ccccc4)nn23)cc1
-1.2%	1%	/	/	Cc1ccc(C)c(S(=O)(=O)N2CCN(c3nc(-c4cccnc4)nc4ccccc34)CC2)c1
0.0%	36%	-8	-2%	CSc1nc(NC(C)(C)C)nc(Oc2ccc(=O)n(C)n2)n1
-2.9%	-14%	-14	6%	COc1cc(CNCc2ccccc2)c(Br)cc1OC1CCCC1
1.3%	-2%	0	0%	COc1ccc(OC)c(S(=O)(=O)NCCC(C)C)c1
0.3%	13%	-1	-7%	CCC(C)(C)n1nnnc1C(c1ccc(OC)c(OC)c1)N1CCN(c2cccc(OC)c2)CC1 (stereo not drawn)
1.8%	5%	/	0%	O=C(CSc1nnc(CNC(=O)c2c(F)cccc2F)o1)NCc1ccccc1

# Going on with the list.
Rango complex inh	Rango dissoc inh	GLA inh pH 4.5	miR-21 reporter	Molecule
0.7%	-2%	-4	0%	Cc1ccc(-n2nc(-c3ccco3)cc2C(=O)NCc2cccnc2)cc1
4.4%	2%	-5	-33%	Clc1ccc(CNc2ccccn2)cc1
-1.1%	1%	8	-1%	COc1ccc(NC(=O)CSc2nnc(Cc3cccn3C)n2CCc2ccccc2)c(OC)c1
1.9%	8%	11	4%	COC(=O)CSc1ccc(C#N)c(SCC(=O)OC)c1
-4.9%	7%	4	-1%	Cc1nn(-c2ccccc2)c(C)c1C(=O)OCC(=O)N1CCN(S(=O)(=O)c2ccccc2)CC1
-1.8%	2%	-4	-10%	O=C(c1ccccc1)c1n[nH]c(-c2ccccc2)cc1=O
-0.6%	12%	0	-20%	CCCC(=O)Nc1nnc(Cc2ccccc2)s1
?	-10%	-2	-2%&-1%	CCOC(=O)c1ccccc1NC(=O)Cn1c(=O)n(Cc2ccccc2)c(=O)c2c(C)c(C)sc21
-4.0%	0%	/	/	CC1CC(C)CN(C(=O)COC(=O)c2ccc(S(=O)(=O)N(C)c3ccccc3)cc2)C1 (stereo not drawn)
-4.5%	-9%	-26	-1%	Cc1cc(-c2nn(C)c(=O)c3ccccc23)ccc1CNC(=O)NC1CCCCC1
4.6%	0%	-4	-2%	Cc1ccccc1-n1nc2c(c1NC(=O)c1c(-c3ccccc3Cl)noc1C)CSC2
-0.7%	-10%	-5	-2%	CCN(CC)CCN1C(=O)C(O)=C(C(=O)c2cc3cccc(OC)c3o2)C1c1ccc(F)cc1 (stereo not drawn)
1.3%	0%	/	0%	O=C(NCc1ccco1)C1CCN(C(=O)c2ccc([N+](=O)[O-])cc2)CC1
-5.9%	9%	-2	-2%	Cc1nc(SCC(=O)NCc2ccccc2)c2oc3ccccc3c2n1
0.1%	17%	14	-4%	Cc1ccc(Cn2nnc3c(=O)n(Cc4ccccc4C)cnc32)cc1
1.6%	3%	2	-7%	O=C(NCc1ccccn1)c1ccc(Cn2cc(Br)cn2)o1
0.1%	8%	/	-6%	CCC1CCCCN1CCCNC(=O)c1ccc(N2CCCC2=O)cc1 (stereo not drawn)
-1.0%	10%	/	/	COc1nc(N)nc(NC(=O)c2cccs2)c1N=O
2.6%	25%	-13	7%	CC1=NOC2(C1)N(C)c1ccccc1C2(C)C (stereo not drawn)
-3.7%	-12%	-1	4%	C=CCOc1cccc(C(=O)NC(c2ccccc2)C(C)C)c1 (stereo not drawn)
5.0%	-15%	/	-67%	COc1ccc(OCc2cc(C(=O)N(C)Cc3nnc(C)o3)no2)c(Cl)c1
-2.1%	7%	/	/	COc1ccc(-c2oc3ccc(-c4ccc5c(c4)OCO5)cc3c2-c2ccc(OC)nc2)cc1
-0.5%	-5%	4	0%	CCCNC(=S)N1CC2(C)CN(C(=O)C(=O)OCC)CC(C)(C1)C2=O
2.0%	-9%	-1	7%	Cc1ccc(S(=O)(=O)NCCC(c2ccccc2)c2ccco2)cc1 (stereo not drawn)
-2.9%	-11%	/	/	CC(=O)c1ccc(S(=O)(=O)N2CCN(c3nc(-c4cccnc4)nc4ccccc34)CC2)cc1
0.4%	15%	/	9%	CCn1nnc2cc(C(=O)NCCc3ccccc3F)ccc21
-3.1%	3%	/	/	O=C(Nc1ccccc1OC(F)F)C1CC(=O)N(Cc2ccccc2)C1 (stereo not drawn)
5.7%	0%	/	/	Nc1cc2[nH]c(=O)c3ccccc3c2cc1[N+](=O)[O-]
2.3%	0%	/	-1%	COc1ccc(N2CC(C(=O)N[C@@H](C)C(=O)NC(C)c3ccccc3)CC2=O)cc1 (stereo partly drawn)
2.2%	-4%	-12	-2%	CCCCC(=O)N(CCC)CCC

# Source: PubChem

# Not all compounds are listed, so the mix of outcomes need not match the whole.
